Cruzain noTriton: cruzain (T. cruzi) inhibition without detergent. purified cruzain, Z-FR-AMC fluorescence, no detergent. Potency, µM, inactives show max response, negative = inhibition, hits mostly inhibitors. 200,000 compounds, 2.3% hits;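 note: plate controls were enzyme without inhibitor for no effect and buffer without enzyme for full effect; nearly all actives have a fitted effect of over 40% in size; top concentration of the series not given in the record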
Target sequence (P25779 123-467 limits assumed): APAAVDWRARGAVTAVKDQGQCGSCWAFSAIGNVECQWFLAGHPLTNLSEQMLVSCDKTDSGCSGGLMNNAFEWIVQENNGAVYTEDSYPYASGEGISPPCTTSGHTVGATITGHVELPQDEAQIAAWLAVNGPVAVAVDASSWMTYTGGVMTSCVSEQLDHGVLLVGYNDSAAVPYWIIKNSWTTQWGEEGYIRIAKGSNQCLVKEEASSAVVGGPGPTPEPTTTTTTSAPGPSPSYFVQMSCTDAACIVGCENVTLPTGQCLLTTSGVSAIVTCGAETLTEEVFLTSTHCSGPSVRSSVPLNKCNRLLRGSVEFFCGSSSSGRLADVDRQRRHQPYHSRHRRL
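Purified cruzain at 1.5 nM, pre-incubated 15 min with compound at room temperature in 100 mM sodium acetate pH 5.5, 5 mM DTT, 0.00005% Triton X-100. Reaction started with 2 uM Z-FR-AMC; AMC fluorescence increase over 60 s gives rate.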
MARV entry inh: Marburg virus entry inhibition | Marburg virus pseudotyped entry inhibition, cell reporter; control for the full effect not named in the record; about a third of the inactives were read at about 46 µM | Potency, µM (highest dose often 37.8 µM), for inactives: at the highest dose activity change, negative = inhibition, most hits filed as inhibitors | 300,000 compounds, 1.8% hits | AID 540276; active = well fitted inhibition curve with a large enough effect; inconclusive = small, poorly fitted or top-dose-only effect, or effect the other way; inactive = flat fitted curve, though single readings scatter; tested in HEK293 cells; about a fifth of its hits are not listed in these tables; note: % is set by controls: 0 for no effect and ±100 for the full control effect; luciferase read-out
NS1 inh: blocks influenza NS1 protein function; S. cerevisiae slowed by influenza A NS1, growth recovery by OD600; Potency, µM (doses to about 46.1 µM), inactives show top-dose activity, positive = more growth; 270,000 compounds, 0.4% hits; active means well fitted rising curve with a large enough effect; inconclusive means small, poorly fitted or top-dose-only effect; inactive means no such curve, though single readings can be large or run the other way; note: nearly all actives have a fitted effect of over 50% in size
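Compounds were scored for reversing the slow growth caused by influenza A NS1 in S. cerevisiae, measured by optical density at 600 nm. Assay medium contained 2% galactose at pH 6.0; NS1-free yeast of the same strain were the positive control.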
2A StopGo: lowers the luciferase signal of an FMDV 2A StopGo reporter | Potency, µM (series often up to 57.9 µM), inactives show top-dose signal change, negative = less light | 410,000 compounds, 1.2% hits | human cells with a luciferase reporter of 2A StopGo recoding; control for the full effect not named in the record; active = well fitted falling curve with a large enough effect; inconclusive = small, poorly fitted or top-dose-only effect; inactive = no such curve, though single readings can be large or run the other way; tested in HEK293T cells; note: % is set by controls: 0 for no effect and ±100 for the full control effect; nearly all actives have a fitted effect of over 45% in size; luciferase light after 4 h
RE007 growth inh: less growth of the S. pombe RE007 Vpr strain | 360,000 compounds, 0.21% hits | Potency, µM (titrated, usually from 92.2 µM), inactives show top-dose activity change, negative = less growth | S. pombe RE007 Vpr strain, BacTiter-Glo ATP luminescence, 24 h; control for the full effect not named in the record; active = well fitted falling curve with a large enough effect; inconclusive = small, poorly fitted or top-dose-only effect; inactive = no such curve, though single readings can be large or run the other way;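 note: % is set by controls: 0 for no effect and ±100 for the full control effect; nearly all actives have a fitted effect of over 50% in size; the assay follows cell death caused by Vpr and the record does not say whether a fall means rescue or toxicity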
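Fission yeast RE007 carrying one integrated HIV-1 vpr copy, seeded at OD 0.01 in PMG+AL medium with 23 nL pinned compound. Grown 24 h at 30 degrees; viability read by BacTiter-Glo luminescence after 5 min.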
SARS PLP yeast: SARS-CoV PLP inhibition in yeast. Potency, µM (titrated, usually from 32.9 µM), for the others: top-dose activity, positive = growth rescue. S. cerevisiae expressing SARS-CoV PLpro, growth rescue; control for the full effect not named in the record. 330,000 compounds, 0.19% hits; active means well fitted rising curve with a large enough effect; inconclusive means small, poorly fitted or top-dose-only effect; inactive means no such curve, though single readings can be large or run the other way; note: 0% is about no effect; nearly all actives have a fitted effect of over 55% in size; growth read by luminescence after 48 h
Lassa entry inh: blocks Lassa virus binding to or entry into cells | Lassa virus pseudotype entry inhibition, cell reporter; control for the full effect not named in the record | Potency, µM (top dose mostly 37.9 µM), inactives show at the highest dose activity change, negative = inhibition, actives largely listed as inhibitors | 300,000 compounds, 1.2% hits; active means well fitted inhibition curve with a large enough effect; inconclusive means small, poorly fitted or top-dose-only effect, or effect the other way; inactive means flat fitted curve, though single readings scatter; tested in HEK293 cells; note: % is set by controls: 0 for no effect and ±100 for the full control effect; nearly all actives have a fitted effect of over 50% in size; luciferase read-out
Cruzain Triton: blocks cruzain activity in presence of Triton detergent. AID 1478. purified cruzain, Z-FR-AMC fluorescence, 0.01% Triton. 200,000 compounds, 0.43% hits. Potency, µM, for the others: max response, negative = inhibition, most hits filed as inhibitors;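 note: plate controls were neutral wells for no effect and buffer without enzyme for full effect; nearly all actives have a fitted effect of over 40% in size; top concentration of the series not given in the record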
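Cruzain (1.5 nM) preincubated 15 min at RT with compound in 100 mM sodium acetate pH 5.5, 5 mM DTT, 0.01% Triton X-100. Reaction started with 2 uM Z-FR-AMC; AMC fluorescence (ex 360/em 450 nm) change over 60 s gave rate.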
The depositor's hits bear a star; ? = inconclusive; nt = not tested or not shown; & = joins results of further samples; [ ] = remark or other dose. Unless noted, calls come from the whole dose curve; as a rule, active = well fitted curve in the direction sought with a large enough effect; inconclusive = small, poorly fitted or top-dose-only effect, or another doubt; inactive = no such curve, though single readings can be large; an effect the other way counts as inactive or inconclusive. Potency is the fitted concentration of half-maximal effect.

SMILES | Cruzain noTriton | MARV entry inh | NS1 inh | 2A StopGo | RE007 growth inh | SARS PLP yeast | Lassa entry inh | Cruzain Triton
COc1ccc(C)cc1NC(=O)COCC(=O)O | 2% | 23% | ? | 11% | 20% | -2% | -15% | 1.0%
CCOC(=O)C1=C(C)OC(N)=C(C(=O)OCC)C12C(=O)Nc1ccc(Br)cc12 (stereo not drawn) | ? | ? | -8% | 0% | 4% | 4% | -2% | 0.7%
COc1ccc(NC(=O)CC2C(=O)N(c3ccc(C)cc3)C(=O)N2Cc2cccnc2)cc1 (stereo not drawn) | -4% | nt | nt | -16% | nt | nt | 10%[46.1 µM] | -1.1%
O=C(CN(C(=O)CCC(=O)Nc1ccccn1)c1cccc(F)c1)NCc1ccc2c(c1)OCO2 | nt | 3%[46.1 µM] | 8% | 1% | 0% | -1% | ? | nt
S=c1[nH]nc(Nc2ccc(Cl)cc2)s1 | nt | nt | -1% | 9% | -4% | 1% | nt | nt
Cc1ccc(CN2CCN(Cc3ccccc3F)CC2)cc1 | nt | ? | 5% | -11% | -14% | 1% | -8% | nt
O=c1c(C=Nc2ccc(Cl)cc2)c[nH]n1-c1cccc(Cl)n1 | ? | -10% | -9% | 8% | 3% | 2% | -10% | -1.1%
O=C(Cn1cc(C(F)(F)F)ccc1=O)N/N=C/c1cccc(Cl)c1 | 1% | 11% | 24% | -12% | -7% | 8% | -1% | -1.8%
COc1ccccc1N1CCN(C(=O)CCS(=O)(=O)c2ccc3c(c2)NC(=O)C(C)S3)CC1 (stereo not drawn) | nt | nt | 7% | ? | 3% | -9% | nt | nt
O=C(O)c1cccc(-n2cccc2/C=C2/SC(=O)N(CC(=O)N3CCCC3)C2=O)c1 | nt | -3%[46.1 µM] | 19% | -6% | 1% | -1% | nt | nt
Cc1cc(C)cc(NC(=O)CCS(=O)(=O)c2cc3c4c(c2)CCN4C(=O)CC3)c1 | 14% | nt | nt | 0% | nt | nt | 5%[46.1 µM] | -7.8%
CCn1c(=O)c2c(nc3n2CCCN3Cc2ccccc2)n(C)c1=O | nt | nt | -5% | -26% | 3% | 2% | nt | nt
COc1ccc(/C=C/c2nc(N)nc(-c3ccccc3O)n2)cc1 | 16% | 13% | 7% | -22% | -12% | -20% | -2% | -1.7%
COCc1cc(=O)n2[nH]c(-c3ccc(C)cc3)cc2n1 | -3% | 13% | 7% | nt | -2% | -7% | 13% | 5.1%
COc1cccc(CN(C)C(=O)c2ccc(OCC(=O)Nc3cccc(C(F)(F)F)c3)c(OC)c2)c1 | nt | ? | nt | ? | -10% | -1% | 8.9µM* | nt
CN(c1ccccc1C(=O)Nc1ccccc1-c1ccccc1)S(C)(=O)=O | nt | nt | -3% | -13% | 3% | -2% | nt | nt
Cc1ccc(C)c(OCC(=O)Nc2ccc3c(c2)OCO3)c1 | ? | ? | -1% | 1% | 5% | -11% | 17% | -3.7%
COc1ccc(N2CCN(C(c3cccs3)C(C)NS(=O)(=O)c3ccccc3)CC2)cc1 (stereo not drawn) | 1% | ? | -40% | ? | -19% | -6% | ? | 0.7%
CCOC(=O)c1ccccc1NC(=O)CSc1nnc(COc2ccccc2C)n1C | 24% | ? | -13% | -23% | 8% | -2% | 25% | 4.0%
CCN(Cc1ccccc1)C(=O)c1cccc(OC2CCN(C(=O)C3CC3)CC2)c1 | nt | nt | -17% | -27% | 5% | 0% | nt | nt
COc1cccc(Cn2cnc3c(NS(=O)(=O)c4ccc(Cl)cc4Cl)c(C)c(C)cc32)c1 | 32µM* | ? | 6% | ? | -16% | -10% | 2% | 2.1%
Cc1cc(N2CCCCC2)ccc1C=C1C(=O)N(C)C(=S)N(C)C1=O | 0% | 11% | 2% | ? | -24% | -8% | -11% | -8.4%
O=C(COc1ccc(-n2cnnn2)cc1)NC(=O)NCc1ccccc1 | 17% | 12%[46.1 µM] | -1% | -17% | 8% | 2% | 3% | -0.1%
N#Cc1nc(COc2ccc(F)cc2)oc1N1CCCCC1 | nt | 21% | -54% | -12% | 1% | -1% | 5% | nt
O=C1Nc2cc(Cl)c(Cl)cc2N(O)N1c1cc(Cl)cc(Cl)c1 | 1% | 0% | 9% | nt | 9% | 2% | 25% | -7.6%
CCOCCCn1c(N)c(C(=O)Nc2sc3c(c2C(=O)OC)CCCC3)c2nc3ccccc3nc21 | ? | 14%&-3% | ? | nt | -6% | ? | 22% | -6.4%
COc1ccc(Cc2nnc(NC(=O)c3ccco3)s2)cc1 | 3% | 10% | -27% | 72%[activator] | -9% | 3% | 1% | -2.7%
COc1ccccc1C1CC(=O)N(c2cccc(C(F)(F)F)c2)C2=C1C(=O)OC2 (stereo not drawn) | -6% | nt | nt | ? | nt | nt | -3%[46.1 µM] | -3.4%
O=C(CN1C(=O)C2CC=CCC2C1=O)N1CCN(c2ccc([N+](=O)[O-])cc2)CC1 (stereo not drawn) | nt | ? | 2% | 0% | -21% | 0% | -13% | nt
COc1ccc(S(=O)(=O)NCc2cccnc2)cc1NC(=O)c1ccccc1 | nt | 12%[46.1 µM] | 9% | 83%[activator] | -4% | 13% | nt | nt
CC1=C(C(=O)OC(C)(C)C)C(c2ccc3ccccc3c2)NC(=O)N1C (stereo not drawn) | nt | ? | 13% | -27% | 8% | -2% | -5%[46.1 µM] | nt
COc1ccc(CC(=O)NNS(=O)(=O)c2ccc(F)cc2)cc1OC | nt | nt | 0% | -3% | -2% | 0% | nt | nt
C/C(=N\NC(=O)CNc1ccc(F)cc1)c1cc2ccccc2o1 | nt | ? | nt | 0% | -14% | 0% | ? | nt
CCOc1ccc(NC(=O)CSc2nnc(-c3ccccn3)n2C)cc1 | 2% | 0% | 2% | 19% | 28% | 0% | 0% | 0.6%
CCS(=O)(=O)N1CCc2cc(C(=O)Nc3ccc(C(=O)OC)cc3)ccc21 | -18% | -5%[46.1 µM] | nt | 0% | nt | nt | 10%[46.1 µM] | -1.9%
COC(=O)c1ccc(N/N=C/c2cc([N+](=O)[O-])cc(OC)c2O)cc1 | nt | ? | 7% | 16% | 0% | 0% | 0%[46.1 µM] | nt
O=C(Nc1ccccc1)N(Cc1ccc(Cl)cc1)CC(O)C(F)(F)F (stereo not drawn) | -2% | ? | -9% | -14% | 8% | -7% | 2% | -3.0%
CC1(C)NC(=O)N(CC(O)COc2cc3ccccc3cc2C(=O)N2CCCCC2)C1=O (stereo not drawn) | -1% | ? | 4% | 5% | -24% | 5% | -9% | -2.8%
CCOc1ccc(NS(=O)(=O)c2ccc(C(=O)NCCN3CCOCC3)cc2)cc1 | nt | 21% | nt | -10% | 1% | 1% | 11% | nt
Cc1ccc(OCC(=O)N2CCCCCCC2)cc1C | nt | ? | 25% | 17% | -1% | 2% | 4%[46.1 µM] | nt
COC(=O)CCCC1=CC2=C(c3ccccc3)C(=O)C(C)(OC(=O)C3CCCC3)C(=O)C2=CN1CC(C)C (stereo not drawn) | nt | nt | -9% | -17% | ? | 0% | nt | nt
CCNC(=S)N1CCC(Cc2ccccc2)CC1 | nt | -16%[46.1 µM] | 17% | -28% | 1% | 3% | 21%[46.1 µM] | nt
CCOC(=O)c1c(NC(=O)c2nc(SC(C)C)ncc2Cl)sc2c1CCCC2 | 1% | 6%[46.1 µM] | nt | -11% | nt | nt | 0%[46.1 µM] | 0.5%
CCCCOc1cccc(C2/C(=C(\O)c3ccc4c(c3)OCCO4)C(=O)C(=O)N2CCN2CCOCC2)c1 (stereo not drawn) | nt | nt | 13% | -7% | 7% | 0% | nt | nt
CCCN(CC(=O)Nc1ccccc1C)C(=O)c1ccc(COc2ccccc2)cc1 | nt | -29% | -52% | -17% | 2% | 4% | -2% | nt
CCN(CC)C(=O)Cn1c(SCC(=O)Nc2ccc(F)cc2)nc2ccccc21 | 5% | nt | nt | -5% | nt | nt | -16%[46.1 µM] | -2.0%
Nc1nc(CSc2nnnn2-c2ccc(Cl)cc2)nc(N2CCOCC2)n1 | -10% | 14% | 2% | -4% | -1% | -1% | -8% | 0.7%
COc1cccc(C(CC(=O)O)NS(=O)(=O)c2ccc3c(c2)N(C(C)=O)CC(C)O3)c1 (stereo not drawn) | nt | nt | -11% | -5% | -3% | 3% | nt | nt
Cc1ccc(-c2csc(N/N=C/c3ccco3)n2)cc1 | ? | ? | -5% | 56%[activator] | -4% | 5% | ? | -10%
COc1ccc(-n2c(N)cc(=O)nc2SCC(=O)N2CCN(c3ccccc3)CC2)cc1 | nt | -2% | 21% | -1% | -15% | 7% | 7% | nt
CCOc1cc2[nH]c(=S)n(CCN3CCC(C)CC3)c(=O)c2cc1OCC | 5% | -12% | 12% | -13% | -1%[3.69 µM] | 3% | 19% | 2.3%
CC(=O)N1CCOc2ccc(S(=O)(=O)N3CCCC(C)C3)cc21 (stereo not drawn) | nt | nt | 17% | -3% | 8% | -11% | nt | nt
O=C(Nc1ccccc1Cl)NC1(C(=O)N2CCOCC2)CCCCC1 | nt | -16%[46.1 µM] | 6% | 1% | 1% | 4% | 11%[46.1 µM] | nt
O=C(CN(C(=O)c1ccc(Cl)cc1)N1C(=O)C2CCCCC2C1=O)c1ccc(Cl)cc1 (stereo not drawn) | 13% | 24% | 20% | 12% | 4% | 2% | -4% | 1.5%
CS(=O)(=O)c1ccc(NCC2CCCO2)c([N+](=O)[O-])c1 (stereo not drawn) | nt | 7%[46.1 µM] | 4% | -3% | 2% | 1% | 6%[46.1 µM] | nt
O=C1C2C3C=CC(C3)C2C(=O)N1c1ncc([N+](=O)[O-])s1 (stereo not drawn) | nt | 2%[46.1 µM] | nt | -16% | 7% | nt | 4%[46.1 µM] | nt
NCC#Cc1ccccc1 | 10% | 5%&5%&5% | -7% | nt | nt | nt | nt | -3.0%
CCCCNC(=S)N/N=C/c1cc(C)ccc1C | 0% | -17% | -3% | -3% | -6% | ? | ? | -8.3%

High-throughput results from PubChem.

Hits appear at their usual frequency. About 4.5% of those tested had a hit in this group.
